# Source: PubChem BioAssay
# ClpP mod: qHTS Assay for Activators of ClpP; purified B. subtilis ClpP, FRET peptide cleavage, 20 min; 1.9% of 340,000 active; Potency, µM (highest dose often 57.5 µM), without a hit: top-dose activity change, negative = active; ATP-dependent Clp protease proteolytic subunit (Bacillus subtilis (strain 168)), P80244; AID 651965, 2013; active = well fitted falling curve with a large enough effect; inconclusive = small, poorly fitted or top-dose-only effect; inactive = no such curve, though single readings can be large or run the other way; note: potency is the fitted concentration of half-maximal effect; the source files actives as falling curves though it sought activators and does not explain the sign; nearly all actives have a fitted effect of over 65% in size; many hits overshoot -100%
# Target sequence (P80244 whole entry, looked up): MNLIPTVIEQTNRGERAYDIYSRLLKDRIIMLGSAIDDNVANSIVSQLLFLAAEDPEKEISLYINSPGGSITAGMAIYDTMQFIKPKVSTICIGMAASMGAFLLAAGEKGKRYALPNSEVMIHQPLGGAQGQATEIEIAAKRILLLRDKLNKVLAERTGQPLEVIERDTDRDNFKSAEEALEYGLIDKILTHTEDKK
#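 ClpP 10 microg/mL final, pH 8 Tris/KCl buffer with BSA, glycerol, Tween-20; compound pinned in; FRET-FV substrate; RT 20 min; Ex320/Em430; ΔFRET vs ADEP 5.8 microM, DMSO, no enzyme.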
# TRPML1 ag: agonists of human TRPML1 channel; 0.12% of 410,000 active; activation, % (test concentration not listed); Q9GZU1; TRPML1-expressing cells, Ca2+ dye fluorescence, FDSS; host cell line not named in the record; reference of the full effect not given here; in the data active = activation above about 50%; inconclusive = about 30% to 50%; inactive = below about 30%; note: 0% is about no effect; the text of the record puts the active cut at 80%
# Target sequence (Q9GZU1 whole entry, looked up): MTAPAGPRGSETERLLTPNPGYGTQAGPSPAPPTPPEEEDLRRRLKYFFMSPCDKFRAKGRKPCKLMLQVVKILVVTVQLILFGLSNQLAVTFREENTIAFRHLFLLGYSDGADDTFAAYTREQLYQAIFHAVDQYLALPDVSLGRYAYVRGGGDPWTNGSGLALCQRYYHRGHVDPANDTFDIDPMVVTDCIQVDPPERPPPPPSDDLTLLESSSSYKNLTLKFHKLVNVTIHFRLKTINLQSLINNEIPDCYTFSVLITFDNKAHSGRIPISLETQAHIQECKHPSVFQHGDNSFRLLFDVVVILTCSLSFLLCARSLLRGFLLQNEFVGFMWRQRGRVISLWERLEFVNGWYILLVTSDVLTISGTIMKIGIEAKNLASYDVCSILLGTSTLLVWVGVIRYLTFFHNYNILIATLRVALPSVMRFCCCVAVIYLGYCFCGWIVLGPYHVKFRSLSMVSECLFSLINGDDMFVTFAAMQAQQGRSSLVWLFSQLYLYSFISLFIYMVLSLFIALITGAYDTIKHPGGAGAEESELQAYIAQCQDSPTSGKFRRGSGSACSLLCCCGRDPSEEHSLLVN
#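 Agonist activity was taken from a 110 s kinetic Ca2+ dye read on the FDSS after pinning compounds onto TRPML1-DL cells. The cells were seeded at 1,500/well with Tet inducer, incubated about 16 h, then dye-loaded at room temperature.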
# gsp antagonist: gsp mutant antagonism; 0.4% of 340,000 active; Potency, µM (highest dose often 76.9 µM), without a hit: at the top dose activity change, negative = inhibition, most hits filed as inhibitors; gsp-mutant cells, cAMP HTRF, 30 min; control for the full effect not named in the record; AID 624288; active = falling curve of any shape with a large fitted effect; inconclusive = falling curve, mostly with a smaller effect; inactive = flat or rising curve; cell line not stated here;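 note: intracellular cAMP measured with PDE inhibitor Ro 20-1724 present during compound exposure; potency is the fitted concentration of half-maximal effect; % is set by controls: 0 for no effect and ±100 for the full control effect; nearly all actives have a fitted effect of over 65% in size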
#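 Cells, 2000/well, grown 16–24 h in DMEM 10% FBS with 0.5 mg/ml G418, then compounds plus […] (300 uM addition stock), 30 min at 37C. cAMP read by HTRF (cAMP-d2 and anti-cAMP antibody-K in lysis buffer) after 30 min RT.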
# gsp agonist: gsp mutant agonism | gsp mutant cells, cAMP HTRF, 30 min; control for the full effect not named in the record | Potency, µM (titrated, usually from 76.9 µM), for inactives: at the top dose activation (cAMP increase), hits mostly activators | 0.13% of 340,000 active | AID 624287; active = well fitted activation curve with a large enough effect; inconclusive = small, poorly fitted or top-dose-only effect, or another doubt; inactive = no such curve, though single readings can be large or run the other way; cell line not stated here;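 note: phosphodiesterase inhibitor Ro 20-1724 added with compounds to block cAMP breakdown; potency is the fitted concentration of half-maximal effect; nearly all actives have a fitted effect of over 60% in size; about a fifth of the inactives were tested at one dose only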
#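 Cells stably selected in G418 were plated at 2000/well, grown 16-24 hr, then given compounds in DMSO with the PDE inhibitor […] (300 uM solution added) for 30 min at 37C; cAMP was read by HTRF.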
# TRPML1 blocker: human mucolipin-1 channel inhibition; TRPML1-inducible cells, Ca2+ dye fluorescence, FDSS; stronger effect = lower value; inhibition of EC80 agonist-evoked calcium signal; activity change, negative = inhibition, % (no concentration beside the values); Q9GZU1; 0.02% of 390,000 active; in the data active means activity change below about -50%; inconclusive means about -30% to -50%; inactive means above about -30%;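 note: stimulus is agonist 54-4 at its EC80 concentration; % is set by controls: 0 for no effect and ±100 for the full control effect; compound concentration not given in the record; the text of the record puts the active cut at -80%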
#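 Calcium fluorescence in TRPML1-DL cells induced overnight with Tet: a 110 s read after compound pin addition, then a 110 s antagonist read after challenge with 54-4 at 4 uM final (EC80).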
# Menin MLL FP FL: inhibitors of human menin-MLL interaction, wild-type MLL peptide. Fluorescence polarization, fluorescein-MLL peptide displacement from menin. FP activity change, % at 61.4 µM. 290,000 tested, under 10 active; inconclusive = falling polarisation curve, or a change in total fluorescence; inactive = total fluorescence flat and polarisation flat or rising; no compound was filed as active; the % refers to the polarisation; negative = inhibition;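 note: % of control where 0% means no effect; inhibitors lower the polarisation; unlabelled MLL peptide was the positive control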
# Active calls of the source: *; u = inconclusive; x = no result given; [ ] = dose if it differs, or a comment. This is a random part of the collection; any-hit rate near 2.1%.
SMILES,ClpP mod,TRPML1 ag,gsp antagonist,gsp agonist,TRPML1 blocker,Menin MLL FP FL
Cc1ccc(-c2cc(C(=O)N3CCN(S(=O)(=O)c4ccc(Br)s4)CC3)[nH]n2)c(C)c1,-6.6%,2.9,x,x,-5,x
COc1ccc(S(=O)(=O)N2CCN(C)CC2)cc1Br,-1.4%,0.0,16%,27%,-7,-0.7
Cc1ccccc1C(=O)NC1CCN(CC(=O)Nc2nccs2)CC1,-2.2%,-0.8,2%,-48%[inhibitor],3,1.9
O=C(CN1CCCN(Cc2cccc(Cl)c2)S1(=O)=O)Nc1ccc2c(c1)OCCO2,-1.4%,1.0,x,x,16,x
O=C(CN1C(=O)c2ccccc2S1(=O)=O)NCc1c(F)cccc1F,x,0.3,2%,2%[15.4 µM],12,x
COc1cccc(/C=N/NC(=O)CCc2ccccc2)c1,-3.9%,0.7,2%,-33%[inhibitor],5,4.8
CCc1nc(N2CCC(C)CC2)c2oc3ccccc3c2n1,32µM*,2.3,-13%,-8%,27,2.5
Cc1ccc(S(=O)(=O)N2CCN(C(=O)c3ccccc3)CC2)cc1,-1.8%,0.3,6%,0%,-15,-0.8
O=C1CC(c2ccccc2)CC(O)=C1C=Nc1ccc(O)cc1 (stereo not drawn),x,0.4,-1%,-2%,-4,9.2
CC(=O)C1=C(C)NC(SCC(=O)c2ccc(F)cc2)=C(C#N)C1CC(C)C (stereo not drawn),-2.8%,5.1,8%,13%,-8,0.1
CCOC(=O)C(Cc1c[nH]c2ccc([N+](=O)[O-])cc12)(NC(C)=O)C(=O)OCC,x,0.3,-7%,3%,6,x
Cc1ncc([N+](=O)[O-])n1CCOC(=O)Nc1ccc([N+](=O)[O-])cc1,x,1.7,6%,-1%[15.4 µM],25,4.8
COc1cc(/C=N/NC(=O)CCn2cnc(-c3ccccc3)c2-c2ccccc2)ccc1O,x,2.0,-22%,0%[15.4 µM],-11,3.1
Cc1ccnc(NC(=O)c2ccccc2NC(=O)c2ccccc2)c1,-0.3%,0.0,-12%,14%[15.4 µM],-4,0.4
O=[N+]([O-])c1nn(-c2ccc3c(c2)OCCO3)n(O)c1=NCCC1=CCCCC1,-3.5%,-0.2,-5%,2%[15.4 µM],5,-0.3
OCCCNC(=S)Nc1ccc(Oc2ccccc2)cc1,x,0.0,4%,4%[15.4 µM],-2,2.0
Clc1ccsc1-c1ccc2ccccc2n1,-29%,1.1,-28%,u,10,-1.8
Cc1cc(C)cc(OCC(=O)OCC(=O)N(CC(C)C)c2c(N)n(Cc3ccccc3)c(=O)[nH]c2=O)c1,-1.1%,0.0,-2%,5%[15.4 µM],0,x
O=C(NCCC(=O)N1O[C@@H]2C=C[C@H]1C2)OCC1c2ccccc2-c2ccccc21,-0.6%,-1.0,6%,x,17,x
Cc1cccc(-c2c3c(=O)n(C)c(=O)n(C)c3cn2CCO)c1,28µM*,-0.4,9%,20%,-10,-1.3

# Next part, overlapping the part above by two compounds.
SMILES,ClpP mod,TRPML1 ag,gsp antagonist,gsp agonist,TRPML1 blocker,Menin MLL FP FL
O=C(NCCC(=O)N1O[C@@H]2C=C[C@H]1C2)OCC1c2ccccc2-c2ccccc21,-0.6%,-1.0,6%,x,17,x
Cc1cccc(-c2c3c(=O)n(C)c(=O)n(C)c3cn2CCO)c1,28µM*,-0.4,9%,20%,-10,-1.3
COCC(=O)NC1CCN(CC(=O)Nc2ccccc2[N+](=O)[O-])CC1,x,1.2,5%,12%[15.4 µM],-11,3.2
O=c1c2ccccc2nnn1CCN1CCOCC1,-1.5%,0.7,6%,3%,-23,-0.5
CSc1cccc(NC(=O)Nc2nc3c(C)cccc3s2)c1,3.6%,-0.2,-10%,-35%[inhibitor],2,3.7
O=C(NCCc1ccc(F)cc1)C(=O)NCC(c1ccco1)S(=O)(=O)c1ccccc1 (stereo not drawn),-1.2%,2.2,x,x,-6,x
Cc1ccc(S(=O)(=O)Nc2ccc3c(c2)nc(CN2CCCC2)n3C)cc1,1.4%,2.1,2%,-18%,8,4.5
O=C(NCc1ccc(F)cc1)C1CCN(c2ncnc3c2nc2n3CCCCC2)CC1,0.6%,-0.9,x,x,8,x
CCOC(=O)c1ccc(N/C=C/C(=O)c2ccc(OC)cc2)cc1,-2.0%,-0.1,4%,-7%,-8,0.2
CCC1Sc2ccc(S(=O)(=O)CCC(=O)NCc3cccs3)cc2NC1=O (stereo not drawn),0.0%,-0.7,-8%,1%,-12,-0.3
COc1ccc(/C=N/NC(=O)CN2CCCC2)cc1,-0.2%,-0.5,0%,-1%,4,2.3
O=C(NCC1CCCO1)c1ccccc1NS(=O)(=O)c1cccc([N+](=O)[O-])c1 (stereo not drawn),-0.7%,2.1,-6%,-25%,-11,x
CCOC(=O)C1(CCOc2ccccc2)CCN(Cc2cnc(C)s2)CC1,x,-0.8,0%,-2%,-4,4.4
COc1cc(C2NC(=O)CS2)cc(OC)c1OC (stereo not drawn),2.8%,-0.2,8%,7%,4,5.4
COc1ccccc1CNC(=O)CCc1c(C)nn(-c2ccc(N3CCOCC3)nn2)c1C,-3.0%,-1.0,x,x,10,x
O=C(CCN1CCCO1)N1CCCC(Nc2cccc(F)c2)C1 (stereo not drawn),1.7%,0.0,x,u,16,x
COc1cc(O)oc1C=Nc1ccc(Cl)cc1,0.4%,0.5,3%,6%,2,1.0
COCc1cc(=O)[nH]c(/N=C(\N)Nc2cccc(Cl)c2)n1,x,-1.1,-2%,5%[15.4 µM],-10,-1.4
Cc1cc(NC(=O)c2cc(CC(C)C)on2)n(-c2ccccc2)n1,2.1%,0.8,-1%,-45%[inhibitor],33,0.7
Cc1cc(=O)oc2cc(OCC(=O)NC3CCCC3)ccc12,4.8%,x,-1%,x,x,-2.2
Nc1nc(CSc2ncccn2)nc(Nc2ccccc2)n1,-0.1%,0.2,10%,u,1,-2.1
Cc1cc(NC(=O)c2ccc(-c3ccc(Br)cc3)o2)cc(-c2nc3ncccc3o2)c1O,-0.9%,-0.3,x,x,-1,x
O=S(=O)(NCc1csc(-c2ccccc2)n1)c1ccccc1,-3.4%,1.3,x,x,4,x
O=C(Nc1cccc(NC(=O)c2ccc(Cl)cc2)n1)c1ccc(Cl)cc1,u,0.8,7%,9%[15.4 µM],-2,x
COC(=O)c1c(C)[nH]c(C(=O)NCCc2ccc(S(N)(=O)=O)cc2)c1C,x,-0.1,-18%,27%[15.4 µM],-6,1.1
COc1cccc(CC(=S)N2CCOCC2)c1,-0.8%,0.4,16%,12%,35,3.2
CN1CCc2cc(O)c(O)cc2C(c2ccccc2)C1 (stereo not drawn),-0.7%,0.0,-1%,x,-18,2.7
Clc1ccc(C2CC(c3cccs3)n3ncnc3N2)cc1 (stereo not drawn),x,3.4,1%,7%[15.4 µM],-5,0.0
CCc1ccc(CN2C(=O)c3ccccc3C2C(=O)NCc2cccnc2)cc1 (stereo not drawn),x,-0.7,6%,28%[15.4 µM],-1,1.6
CCCCCCCn1c(=O)c(C(=O)OC)c(N)c2ccccc21,x,0.9,u,-4%[15.4 µM],-12,2.0
CC(CNC(=O)Cn1ccc(NC(=O)OCc2ccccc2)nc1=O)c1ccccc1 (stereo not drawn),-0.2%,-0.6,2%,x,24,x
COc1ccc2c(c1)CCc1c(C(=O)Nc3cc(C)n(Cc4ccc(Cl)cc4)n3)noc1-2,60%,1.4,4%,-33%[inhibitor],2,1.6
Cn1c2ccccc2c2ncn(CCC3=CCCCC3)c(=O)c21,-12%,-0.8,-10%,u,-3,4.1
COc1ccc(COC(=O)CCNC(=O)c2ccc(Cl)cc2)cc1,-0.8%,0.4,5%,-24%,10,x
Cc1ccc(S(=O)(=O)N(C)CC(=O)Nc2ncccc2C)cc1,-3.5%,0.1,8%,0%,-9,x
COc1ccc(/C=N/Nc2cc(N3CCOCC3)ncn2)c(OC)c1,4.5%,-0.3,2%,1%,1,0.9
O=[N+]([O-])c1cc(S(=O)(=O)N2CCOCC2)ccc1NS(=O)(=O)c1ccccc1,0.8%,0.8,-9%,-6%[15.4 µM],-5,x
COC1=Cc2c(ccc3ccc(=O)oc23)OC1(C)C,0.0%,0.7,-9%,-13%,-10,-1.8
Cc1csc2nc(COc3ccc(NC(=O)c4ccccc4F)cc3)cc(=O)n12,-9.1%,-0.1,x,x,-3,x
O=C(Cn1c(=O)n(CCCCC(=O)NC2CCCC2)c(=O)c2ccccc21)NCCC1=CCCCC1,0.3%,-0.9,-12%,2%,2,1.0
COC(=O)c1cc(-c2c(C)nn(-c3ccccc3)c2C)n[nH]1,0.4%,1.5,u,-29%,17,-0.2
Cc1cccc(-n2[nH]c(C)c(C=Nc3ccc4[nH]c(=O)[nH]c4c3)c2=O)c1,-0.9%,0.1,-7%,u,4,1.2
COC(=O)Cn1cnc2c(Cl)nc(F)nc21,0.1%,-0.4,1%,x,14,x
CCN(c1ccccc1)S(=O)(=O)c1cc2c(cc1C)n(C)c(=O)c(=O)n2C,-7.5%,-0.2,-11%,11%,7,-2.7
Cc1csc2nc(COC(=O)COc3ccccc3F)cc(=O)n12,-2.1%,0.1,x,x,-5,x
Cc1ccc(C)c(NC(=O)C2CCCC2)c1,-1.2%,-0.9,12%,2%,-6,x
CCOc1ccc(C(=O)Nc2ccc3nc(SCC(=O)N(C)c4ccccc4)sc3c2)cc1,4.0%,0.0,x,x,6,x
Cc1nn2c(N3CCN(C4CCCC4)CC3)cc(C(C)(C)C)nc2c1-c1ccccc1,-3.5%,-0.2,10%,-36%[inhibitor],26,0.7
Cc1cc(OCC(=O)OCC(=O)c2c(N)n(C)c(=O)n(C)c2=O)ccc1Cl,-1.5%,1.0,-12%,26%,-23,x
COc1ccccc1C(CNC(=O)CN1C(=O)NC(C)(c2ccc3ccccc3c2)C1=O)N1CCCC1 (stereo not drawn),-0.3%,-0.4,6%,6%,10,x
COc1ccccc1N1C(=O)[C@@H]2C(C(=O)CN3C(=O)c4ccccc4C3=O)=NN[C@@H]2C1=O,0.0%,-0.7,4%,-6%[15.4 µM],-14,-2.3
COc1ccc2c(c1)c(=O)oc1cc3occ(C(C)(C)C)c3cc12,-28%,0.3,2%,12%,17,-1.9
# The list goes on.
SMILES,ClpP mod,TRPML1 ag,gsp antagonist,gsp agonist,TRPML1 blocker,Menin MLL FP FL
Cc1cc(C(F)(F)F)nc(NNc2nc(C)cc(C(F)(F)F)n2)n1,-1.4%,-0.8,x,-6%,9,x
CCOC(=O)c1cnn(-c2ccc(F)cc2)c1N,-1.2%,0.5,11%,20%,-16,1.1
Cc1cccc(NC(=O)CSc2nc(=O)n(Cc3ccco3)c3c2CCC3)c1C,-0.6%,0.3,x,x,-9,x
O=C(CSC1=NS(=O)(=O)c2ccccc2N1)Nc1cccc(F)c1,1.1%,-0.1,-4%,0%,-5,x
CCCCN(CCCC)Cc1cc(=O)oc2cc(C)c(Cl)cc12,u,0.8,x,x,-11,x
